Bioassay records (PubChem)
KCNQ2 enhance: KCNQ2 (rat) channel potentiation | B-score at 10 µM | 0.54% of 310,000 active | AID 2239 | CHO-K1 KCNQ2, FluxOR thallium flux fluorescence; hits give high values | O88943;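 active = fluorescence ratio B-score at least 3 SD of library B-scores, with initial fluorescence B-score within 3 SD, cut at about 5.3 in these data; same plate scores as AID 2156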;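 note: B-score of peak minus minimum over baseline fluorescence ratio after K+ and Tl+ stimulus; positive B-score means potentiation of KCNQ2 with more thallium influx and brighter signal; only the inactives scoring about 0 or higher are listed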
Target sequence (O88943 whole entry, looked up): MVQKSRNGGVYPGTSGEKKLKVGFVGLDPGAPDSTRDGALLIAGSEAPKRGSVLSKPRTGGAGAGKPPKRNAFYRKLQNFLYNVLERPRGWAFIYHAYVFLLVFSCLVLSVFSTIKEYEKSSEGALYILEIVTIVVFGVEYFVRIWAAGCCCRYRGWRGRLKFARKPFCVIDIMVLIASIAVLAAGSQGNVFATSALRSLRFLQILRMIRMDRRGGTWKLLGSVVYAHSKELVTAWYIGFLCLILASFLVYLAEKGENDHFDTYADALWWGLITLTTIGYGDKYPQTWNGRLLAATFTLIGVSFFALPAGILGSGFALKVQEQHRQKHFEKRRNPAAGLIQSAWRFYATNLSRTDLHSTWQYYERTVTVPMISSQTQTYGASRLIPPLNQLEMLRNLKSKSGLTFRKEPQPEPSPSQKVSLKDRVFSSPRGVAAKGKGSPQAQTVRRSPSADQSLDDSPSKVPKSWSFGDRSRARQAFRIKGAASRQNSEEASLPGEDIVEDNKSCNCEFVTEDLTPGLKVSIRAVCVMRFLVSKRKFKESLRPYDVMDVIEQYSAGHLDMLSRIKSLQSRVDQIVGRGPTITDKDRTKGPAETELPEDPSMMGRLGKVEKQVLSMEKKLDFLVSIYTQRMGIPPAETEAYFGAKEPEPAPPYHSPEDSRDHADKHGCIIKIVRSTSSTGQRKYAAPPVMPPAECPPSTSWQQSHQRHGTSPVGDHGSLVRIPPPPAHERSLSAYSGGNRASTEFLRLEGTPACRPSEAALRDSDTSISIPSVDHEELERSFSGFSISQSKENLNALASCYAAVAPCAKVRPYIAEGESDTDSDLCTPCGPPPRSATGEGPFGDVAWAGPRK
KCNQ2 enhance baseline: second read-out of KCNQ2 enhance, no call of its own (marks repeat the call); B-score; compound at 10 µM; measured here: initial fluorescence intensity artifact check;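 brightness before thallium and not channel activity; 0 = typical well and far values either way flag optical interference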
Starred values were filed as active, the others as inactive.

SMILES,KCNQ2 enhance,KCNQ2 enhance baseline
CN(C)CCN(Cc1cc2cc3c(cc2[nH]c1=O)OCO3)C(=S)NCc1ccco1,2.2,0.04
O=C(Nc1ccc(Oc2nnc(-c3ccccc3)c3ccccc23)cc1)c1ccccc1,0.49,0.3
CC(C)(C)OC(=O)N1CCC(C(=O)N2CCC[C@H]2C(=O)O)CC1,0.88,0.4
O=C(Cn1cnc2scc(-c3ccc(Cl)cc3)c2c1=O)N1CCOCC1,1.7,-0.03
O=C(NCC(=O)N(c1ccc(F)cc1)C(C(=O)NC1CCCC1)c1cccnc1)c1cccs1 (stereo not given),0.22,0.12
O=C(c1ccccc1)c1ccc(C(=O)N2CCOCC2)cc1,0.9,-0.05
CCOc1ccccc1NC(=O)c1ccc2c(c1)C(=O)N(C(C)(C)C)C2=O,0.04,0.31
COCc1cc(C)nc(SCC(=O)Nc2ccccc2C)c1C#N,0.69,0.42
Nc1cc(N)nc(SCCOc2ccccc2)n1,0.27,0.79
CC(=O)N1CCN(Cc2nc3cc(NC(=O)c4ccccc4)ccc3n2C)CC1,0.03,0.06
CN(C)CC/C=C1\c2ccccc2COc2ccccc21,1.6,-1
COc1ccc(C(=O)Nc2nccs2)cc1OC,0.78,-1.3
CS(=O)(=O)c1ccccc1C(=O)Nc1ccc(-c2nc3ccccc3[nH]2)cc1,0.69,2.4
Nc1ccccc1-c1nnc(SCc2ccccc2Cl)[nH]c1=O,0.35,-3.2
CCOC(=O)CNc1ncnc2nc[nH]c12,1.4,0.12
Cc1ccc(C)c(NC(=S)NCc2cccs2)c1,1.4,-1.8
Cc1ccc(N(CC(=O)Nc2ccc3c(c2)OCCO3)S(=O)(=O)c2c(C)noc2C)cc1,0.51,-1.4
CCOC(=O)N1CCC(N2CCN(c3ccccc3)CC2)CC1,0.56,-0.46
CSc1ccc(C(=O)C2CCCN(C(=O)c3ccc4c(c3)OCO4)C2)cc1 (stereo not given),0.75,-0.32
CCC(=O)Oc1ccc(C2NC(=O)c3ccccc3O2)cc1OC (stereo not given),0.32,0.92
C/C(=N\NC(=O)c1ccc2c(c1)OCO2)c1ccc2c(c1)OCO2,0.47,1.1
N#Cc1ccccc1NC(=O)COC(=O)c1ccc2c(c1)OCCO2,0.2,-1.5
O=C(NCc1ccccc1)c1cnc(Cl)c(Cl)c1,0.91,0
CCn1c(CSc2nccn2C)nc2cc(C(=O)O)ccc21,0.61,3.9
O=C(NCc1cccc(C(F)(F)F)c1)C1CCN(c2ncccn2)CC1,1,-0.94
CC(C)c1ccc(C2CC(=O)c3cnc(NC(=O)c4ccco4)nc3C2)cc1 (stereo not given),0.73,0.1
CC(=O)c1cc(F)c(N2CCN(C(=O)COc3ccccc3F)CC2)cc1C,1.5,-0.94
COc1ccccc1CC(=O)N(CCC#N)CCC#N,0.06,2.2
Cc1cc(C)cc(N(C(=O)c2sc(C)nc2C)C(C(=O)NCc2ccco2)c2ccccc2)c1 (stereo not given),0.19,0.51
C(=N\n1cnnc1)/c1ccc(OC2CSC2)cc1,0.88,-1.7
Cc1nnc(SCC(=O)O)s1,0.08,1.6
CC1CCCN(CC(=O)N2c3ccccc3Sc3ccccc32)C1 (stereo not given),0.48,1.4
O=C(CCS(=O)(=O)c1ccc(Cl)cc1)N1CCN(S(=O)(=O)c2cccs2)CC1,1.6,-0.01
Cc1ccc(N2CC(C(=O)NCCN3CCOCC3)CC2=O)cc1 (stereo not given),1.7,0.92
C/C(=N\NC(N)=O)C1CC(CC(C)C)C(=O)O1 (stereo not given),0.01,0.1
O=C(Cn1cc(C(F)(F)F)cc(Cl)c1=O)NCc1ccc(F)cc1,1.1,-0.83
CCN1CCN(CCCNC(=O)c2cc3c(=O)oc4ccc(C)cc4c3s2)CC1,0.73,-1.7
CCN1CCN(C(c2cccs2)C(C)NC(=O)C(=O)N2CCCCC2)CC1 (stereo not given),0.2,0.02
CCOC(=O)CC1=C(C(=O)OCC)C(c2ccc(OC)cc2OC)C(C#N)=C(N)O1 (stereo not given),1.2,0.59
O=C(N/N=C/c1ccncc1)c1cnccn1,0.07,2.5
CCOc1ccc(/C=N/O)cc1,2.6,-0.26
O=C(CSc1n[nH]c(-c2ccccn2)n1)Nc1ccccc1F,0.86,0.03
Cc1cc(C(=O)NNC(=S)NCc2ccccc2)cs1,0.99,-0.12
CCCCCCC(C)n1cc(C(C)=O)c(=O)n(C)c1=O (stereo not given),0.68,-1.5
CCC1C/C(=C/c2cccs2)C(=O)/C(=C/c2cccs2)C1 (stereo not given),0.68,0.58
CC(C)(C)C(=O)NC(=S)NNC(=O)c1ccc(Cl)cc1Cl,5,1.4
COc1ccc(C(=O)Nn2c(C3CCC3)nc3ccccc3c2=O)c(OC)c1,0.06,1.1
Cc1ccccc1CN1CCN(C2CCC2)CC1CCO (stereo not given),0.79,0.09
CCc1ccc(OCC(=O)Nc2ccc(N3CCN(C(=O)c4ccccc4)CC3)cc2)cc1,0.08,-1.2
Cc1ccc(NC(=O)CCN2CCCCC2)cc1,1,0.57
NC(=O)COC(=O)c1cccc(NS(=O)(=O)/C=C/c2ccccc2)c1,2.4,-1.5
Cc1[nH]c(=O)[nH]c(=O)c1S(=O)(=O)Nc1ccc(Br)cc1F,0.04,-0.35
CN(C)S(=O)(=O)N(CC(=O)N1CCN(c2ccccc2)CC1)c1ccccc1,1.9,-1.1
O=[N+]([O-])c1ccc(N(CC(O)CN2CCCCC2)S(=O)(=O)c2ccccc2)cc1 (stereo not given),0.22,0.32
CCCc1nc(SCC(=O)NCc2ccco2)c2c(=O)n(C)c(=O)n(C)c2n1,2.5,0
CCC(C(=O)Nc1nc(C)c(C)s1)c1ccccc1 (stereo not given),1,0.88
NC(=O)Cn1nnc(-c2ccc(NC(=O)c3ccc(F)cc3)cc2)n1,0.09,-1.1
CCOCCCNS(=O)(=O)c1ccc(OC)c(Cl)c1Cl,0.14,-1.5
Cc1c(Cc2ccccc2)sc(NC(=O)c2ccco2)c1C(N)=O,1.7,-0.19
O=C(N/N=C/c1ccccc1)c1ccc2c(c1)OCO2,0.66,0.5

Already shown: entries from further up.
SMILES,KCNQ2 enhance,KCNQ2 enhance baseline
CCC(C(=O)Nc1nc(C)c(C)s1)c1ccccc1 (stereo not given),1,0.88
NC(=O)Cn1nnc(-c2ccc(NC(=O)c3ccc(F)cc3)cc2)n1,0.09,-1.1
CCOCCCNS(=O)(=O)c1ccc(OC)c(Cl)c1Cl,0.14,-1.5
Cc1c(Cc2ccccc2)sc(NC(=O)c2ccco2)c1C(N)=O,1.7,-0.19

Later entries:
SMILES,KCNQ2 enhance,KCNQ2 enhance baseline
O=C(Cc1ccc(F)cc1)Nc1ccc(S(=O)(=O)N2CCCCC2)cc1,0.51,-0.76
CC(C)(C(=O)O)c1ccc([C@H](O)CCCN2CCC(C(O)(c3ccccc3)c3ccccc3)CC2)cc1,0.61,0.77
CN1CCN(C(=O)c2cccc(S(=O)(=O)N3CCCCC3)c2)CC1,1.5,-0.11
O=C(CN1CCN(c2nc(-c3ccccc3)cs2)CC1)Nc1ccc2c(c1)OCO2,0.29,-0.57
CS(=O)(=O)N(CC(=O)N1CCN(c2ccccc2F)CC1)c1cccc(C(F)(F)F)c1,0.48,-0.61
O=C(CC(c1ccccc1)c1cc(Br)ccc1O)NCc1ccco1 (stereo not given),18*,0.81*
O=C(O)CCC(=O)N1CCN(Cc2ccc3c(c2)OCO3)CC1,0.68,-0.48
Cc1ccc(C(O)c2nc3ccccc3n2C)cc1 (stereo not given),0.35,-0.76
COc1ccccc1C(=O)NCc1ccc2c(c1)OCO2,0.39,-0.9
Cc1cc(C(=O)N/N=C/C=C/c2ccccc2)n[nH]1,0.44,1.3
COCCCNC(=O)Cn1nnc(-c2ccc(NC(=O)c3cccnc3)cc2)n1,0.41,-0.24
Cc1ccc2c(c1)N(CCC(=O)NCCCOC(C)C)C(=O)C(C)O2 (stereo not given),0.13,0.89
CCNC(=S)NNC(=O)Nc1ccccc1,0.35,0.68
CCOC(=O)c1c(C)[nH]c(C(=O)Cn2c(=O)oc3ccccc32)c1C,1.7,0.52
COc1ccc(-c2ccc(-c3nnc(Cc4ccc(OC)c(OC)c4)o3)cc2)cc1,1.4,-1.5
O=C(C1CCCO1)N1CCN(c2ccc(F)cc2)CC1 (stereo not given),1.8,-0.54
Cc1nn(-c2ccc(Cl)c(Cl)c2)c(C)c1C(=O)O,0.63,0
O=C(CN(C(=O)c1csnn1)c1ccc(Cl)cc1)NCCc1ccccc1,2.8,-0.06
CC(=O)NC(Cc1cccc(C)c1)C(=O)NC1CCN(C(=O)c2ccc([N+](=O)[O-])cc2)CC1 (stereo not given),0.53,0.73
CCN1CCN(c2nc(Nc3ccccc3F)nc(N)c2[N+](=O)[O-])CC1,0.53,1.1
Cc1cc(Cl)cc(Br)c1OCCNCC(C)O (stereo not given),0.59,-0.29
COc1cc(/C=C/C(=O)O)ccc1OS(=O)(=O)c1ccc(C)cc1,0.11,0.26
COc1cc(C)nc(NS(=O)(=O)c2ccc(C)cc2)n1,0.86,-1.1
COc1ccc(OCC(=O)Nc2cc(-c3nn4c(C)nnc4s3)ccc2C)cc1,1.5,0.43
COc1ccc2c(c1)c(CC(=O)O)c(C)n2C(=O)c1ccc(Cl)cc1,1.2,-2
COc1cc2c3c(c1OC)C1(C=CC(=O)C=C1)CC3N(C(=O)c1ccccc1)CC2 (stereo not given),1,-1.2
Cc1cccc(NC(=O)CCc2ccc(S(=O)(=O)NC3CCCCC3)cc2)c1,0.36,0.18
CC1CCN(C(=O)CSc2nnc(-c3cccs3)o2)CC1,0.78,0.42
CCc1cc[n+](-c2nc3ccccc3nc2[N-]S(=O)(=O)c2ccc(Br)s2)cc1,0.41,2.1
O=C(c1cnc2n(c1=O)CCS2)N1CCc2ccccc21,0.8,-2.3
O=C(Nc1ccc(OC(F)(F)F)cc1)C1CCCN(S(=O)(=O)c2cccnc2)C1 (stereo not given),1.5,0.35
CN(CCC(=O)Nc1cc(S(=O)(=O)N(C)C)ccc1Cl)CC(=O)Nc1ccc(F)cc1,1.6,1.1
COc1ccc(NC(=O)Cc2nnc(SCC(=O)Nc3ccc(F)cc3)n2C)cc1,0.47,0.36
CC1CN(c2ccc(C(F)(F)F)cc2[N+](=O)[O-])CCN1S(C)(=O)=O (stereo not given),1.9,-0.01
O=C(Nc1ccc(Cl)cc1C(=O)N1CCCC1)c1cccc([N+](=O)[O-])c1,0.66,-0.93
COc1ccc(C2C3C(C)=NN=C3CC(C)(O)C2C(C)=O)cc1 (stereo not given),0.05,-0.14
CC(NC(=O)CN1CCN(c2ncccn2)CC1)c1ccc(F)cc1 (stereo not given),1.8,0.18
CCCNC(=S)Nc1ccc(F)cc1F,0.61,-0.83
COc1ccc2[nH]cc(CCNC(=O)COc3ccc4ccc(=O)oc4c3)c2c1,0.26,-0.32
O=C(c1cccc(F)c1)N1CCCN(C(=O)c2cccc(F)c2)CC1,0.42,0.44

One compound at a time, as listed above. Values in the order: KCNQ2 enhance	KCNQ2 enhance baseline
Profile of `COc1cc(/C=C/C(=O)O)ccc1OS(=O)(=O)c1ccc(C)cc1` : 0.11	0.26
Profile of `O=C(Nc1ccc(Cl)cc1C(=O)N1CCCC1)c1cccc([N+](=O)[O-])c1` : 0.66	-0.93
Profile of `COc1ccc(C2C3C(C)=NN=C3CC(C)(O)C2C(C)=O)cc1` (stereo not given) : 0.05	-0.14

Next part
SMILES,KCNQ2 enhance,KCNQ2 enhance baseline
COc1ccc(Cl)cc1NC(=O)Nc1cc(C)on1,1.9,0.06
CCCOC(=O)c1ccc(NC(=O)c2ccc(Br)o2)cc1,3.1,-0.65
NC(=O)C1CCN(c2ccc3c(c2)S(=O)(=O)c2ccccc2C3=O)CC1,0.61,0.11
Nc1c(C(=O)NCc2cccnc2)sc(=S)n1-c1ccccc1,3.1,-1.4
COC(=O)Nc1ccc(S(=O)(=O)Nc2cc(OC)nc(OC)n2)cc1,1.5,0.71
C/C(=N/NC(=O)CNC(=O)c1cccnc1)c1ccc(Cl)cc1,0.28,0.27
O=C(COc1nc2ccccc2nc1N1CCOCC1)NC1CCCCC1,0.8,-0.19
CCOC(=O)c1ccc(NC(=O)NS(=O)(=O)c2ccc(C)cc2)cc1,0.27,0.9
COC(=O)c1ccc(CSc2nc3ccccc3c(=O)n2C)o1,0.66,-0.8
CCC1Oc2ccccc2N(CC(=O)NCCCN2CCN(c3ccc(OC)cc3)CC2)C1=O (stereo not given),0.89,0.04
S=C(NCCCN1CCOCC1)N1CCN(c2cccc(Cl)c2)CC1,2.4,1.3
O=C(/C=C/c1ccccc1)Nc1nc(-c2ccncc2)cs1,0.01,0.01
CNc1nc2c(c(=O)[nH]c(=O)n2C)n1CCOC,0.57,0.05
O=C(O)c1c(Cl)nc2ccccn12,0.81,-1.3
CCOC(=O)C(/C=N/c1cc(C)nn1-c1ccccc1)=C(\C)O,1.5,-1.9
CCOCCCNC(=O)CN(Cc1ccc(Cl)cc1)S(C)(=O)=O,0.57,-0.62
COc1ccc(N2C(=O)CC(Sc3nccc(C)n3)C2=O)cc1 (stereo not given),0.7,-1.6
COc1cc2c(cc1OC)/C(=C/C(=O)c1ccccc1)NCC2,1.6,0.15

This is a subset. The share of hits here may be higher or lower than overall.
